RecA intein inh = Mtb RecA intein splicing inhibition | P9WHJ3 | cell-free RecA intein splicing, fluorescence | inhibition, %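 (about 9 µM by stock and volumes)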 | hit rate 0.75% among 290,000 | AID 2221; in the data active = inhibition above about 30%; inconclusive = no clear call, values can overlap the other calls;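 also: 0% = vehicle wells and 100% = reference inhibitor control wells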
Target sequence (P9WHJ3 whole entry, looked up): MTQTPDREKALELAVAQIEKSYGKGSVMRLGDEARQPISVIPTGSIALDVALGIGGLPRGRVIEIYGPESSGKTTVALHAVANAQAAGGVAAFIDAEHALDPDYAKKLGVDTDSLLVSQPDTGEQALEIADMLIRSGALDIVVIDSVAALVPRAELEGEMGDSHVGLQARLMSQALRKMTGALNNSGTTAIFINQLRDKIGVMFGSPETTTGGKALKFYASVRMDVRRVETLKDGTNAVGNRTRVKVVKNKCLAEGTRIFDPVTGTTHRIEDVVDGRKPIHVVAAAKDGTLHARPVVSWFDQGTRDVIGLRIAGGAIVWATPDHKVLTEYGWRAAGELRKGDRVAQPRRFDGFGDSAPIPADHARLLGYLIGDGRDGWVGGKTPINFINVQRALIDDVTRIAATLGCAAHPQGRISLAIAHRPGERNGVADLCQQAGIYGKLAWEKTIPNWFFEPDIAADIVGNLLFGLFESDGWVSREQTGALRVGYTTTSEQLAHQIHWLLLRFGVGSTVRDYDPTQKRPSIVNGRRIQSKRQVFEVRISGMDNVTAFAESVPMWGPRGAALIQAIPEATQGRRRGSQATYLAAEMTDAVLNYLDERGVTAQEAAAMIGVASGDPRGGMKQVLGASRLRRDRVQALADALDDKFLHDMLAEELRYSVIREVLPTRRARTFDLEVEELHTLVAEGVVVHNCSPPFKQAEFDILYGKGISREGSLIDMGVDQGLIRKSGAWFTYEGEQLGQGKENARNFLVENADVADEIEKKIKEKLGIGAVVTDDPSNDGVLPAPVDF
Mtb growth = M. tuberculosis H37Rv growth inhibitors, H37Rv strain (AID 1626); M. tuberculosis H37Rv growth inhibition; higher % means a stronger effect; inhibition, % at 10 µM, or IC50 in µM where a hit was titrated; hit rate 0.95% among 220,000;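 active = confirmed in a dose series; inconclusive = inhibition above 80% but not taken into the dose series; inactive = below 80% or under 30% at every dose of the series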;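 also: bacteria incubated seven days before Alamar blue readout; 0% = bacteria only wells and 100% = bacteria with antibiotic wells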
Arbovirus anti = antivirals against arbovirus infection; inhibition, % at 10 µM; arbovirus infection cell-based antiviral screen; hit rate 0.37% among 200,000;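 active = inhibition from about 30%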;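 also: bluetongue infection of BSR cells; cell survival read as ATP light after 72 h; 0% = infected wells without compound and 100% = uninfected wells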
YopH inh = blocks Yersinia enterocolitica YopH tyrosine phosphatase; AID 898; inhibition, %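 (about 10 µM by stock and volumes)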; hit rate 0.16% among 140,000; fluorescence Ex485/Em525;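 active = inhibition of 50% or more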;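 also: controls were vehicle for no effect and minimum signal wells for full effect; inactives centre near -20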
Mtb betalactam = beta-lactam sensitization of Mtb H37Rv; AID 434955; inhibition, % at 25 µM; M. tuberculosis H37Rv growth with meropenem, percent inhibition; hits of this screen are not shown here; hit rate 0.27% among 330,000;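 active = about 74% or more and at least 40 points above the plate without the antibiotic, then above 30% in a dose series; inconclusive = first-round hits that could not be retested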;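 also: growth measured after seven days incubation then overnight dye step; 0% = bacteria only wells and 100% = bacteria with antibiotic; twin plates without the antibiotic show which effects depend on it; some results filed as inactive read as strong as hits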
Arbovirus anti repeat = second read-out of Arbovirus anti, no call of its own (marks repeat the call); inhibition, %; measured here: 10K subset replicate screen; many hits read low in the repeat;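 first of two repeat runs on a subset; 0% = infected and 100% = uninfected wells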
An asterisk follows results filed as active; ? = inconclusive; / = not tested or not shown. Not all compounds are listed. The share of hits here may be higher or lower than overall.

Preview:
SMILES	RecA intein inh	Mtb growth	Arbovirus anti	YopH inh	Mtb betalactam	others
Cc1nc(NCCNC(=O)c2ccco2)c2c(C)c(C)sc2n1	/	-5%	-1	9	-5
CCC(CC)C(=O)OCC(=O)Nc1cccc(S(=O)(=O)N(C)c2ccccc2)c1	5.8	-10%	3	/	-1
Cc1cccc(NC(=S)NC2CC3CCCC(C2)N3Cc2cccs2)c1 (stereo not given)	1.6	6%	-4	-18	12
CCOC(=O)C1=C(C)NC(=O)NC1c1ccc(OC(=O)c2ccco2)cc1 (stereo not given)	2.4	-3%	2	6	-10
O=C(Nc1cccc(F)c1)Nc1ccnn1C1CCN(C(=O)CCN2CCCO2)CC1	2.6	/	/	/	1
Cc1ccc(OCc2ccc(Br)cc2)c([N+](=O)[O-])n1	0.9	7%	-1	/	-4
Cc1c(C(c2ccc(F)cc2)c2c(O)c3ccccc3oc2=O)c(=O)n(-c2ccccc2)n1C (stereo not given)	0.0	-3%	3	-37	4
CCNc1nc2c(c(=O)[nH]c(=O)n2C)n1Cc1ccc(F)cc1	-2.4	-9%	-2	-14	-5	Arbovirus anti repeat=-5
Fc1ccc(COc2ccc(C(=S)N3CCCC3)cc2)cc1	4.1	/	/	/	6
CCN(CC(=O)NCCc1ccc(S(N)(=O)=O)cc1)Cc1ccccc1	-0.9	/	/	/	-7
CCc1ccc(N2CC(C(=O)OCC(=O)NC3CCS(=O)(=O)C3)CC2=O)cc1 (stereo not given)	-5.6	-10%	7	-6	-7	Arbovirus anti repeat=-1
COc1ccc(NC(=O)N2CCCC(C(=O)NCc3ccccc3F)C2)cc1 (stereo not given)	0.6	/	/	/	-2
CCOC(=O)c1cccc(NC(=O)CSc2nnc(C3CCCCC3)n2C)c1	-0.8	-9%	8	3	-1
Cc1ccc(NC2CCCN(C(=O)CCN3CCOCC3)C2)cc1C (stereo not given)	0.0	/	/	/	-15
O=C(Nc1ncc(Cc2ccccc2Cl)s1)C1CCCO1 (stereo not given)	5.8	36%	-3	-22	65
O=C(NCCCN1CCCC1=O)c1cc(-c2ccc3c(c2)OCO3)nc2ccccc12	0.8	6%	-9	/	0
CC1CC(C)CN(C(=S)SCc2nc(N)nc(Nc3ccccc3)n2)C1 (stereo not given)	6.9	-2%	/	/	3
Oc1ccc2ccccc2c1/C=N/c1nccs1	3.7	-5%	16	-36	-2
CC(=O)Nc1ccc(S(=O)(=O)Nc2cccn(Cc3ccc(C)cc3)c2=O)cc1	1.5	-7%	8	/	2
O=C(CN1CCNCC1)Nc1ccc(Oc2ccccc2)cc1	-0.2	3%	-7	-19	?
COc1ccccc1N1CCN(C(=O)CSc2ccccc2)CC1	0.7	-6%	4	8	-6
COc1ccc(/C(O)=C2/C(=O)C(=O)N(c3ccccn3)C2c2ccc(OC)c(OC)c2)cc1 (stereo not given)	-1.7	4%	/	/	0
COc1cc(/C=C(\C#N)C(=O)Nc2ccccc2C(=O)O)cc(Cl)c1OC	1.9	5%	4	/	-3

Results (from the top)
SMILES	RecA intein inh	Mtb growth	Arbovirus anti	YopH inh	Mtb betalactam	others
Cc1nc(NCCNC(=O)c2ccco2)c2c(C)c(C)sc2n1	/	-5%	-1	9	-5
CCC(CC)C(=O)OCC(=O)Nc1cccc(S(=O)(=O)N(C)c2ccccc2)c1	5.8	-10%	3	/	-1
Cc1cccc(NC(=S)NC2CC3CCCC(C2)N3Cc2cccs2)c1 (stereo not given)	1.6	6%	-4	-18	12
CCOC(=O)C1=C(C)NC(=O)NC1c1ccc(OC(=O)c2ccco2)cc1 (stereo not given)	2.4	-3%	2	6	-10
O=C(Nc1cccc(F)c1)Nc1ccnn1C1CCN(C(=O)CCN2CCCO2)CC1	2.6	/	/	/	1
Cc1ccc(OCc2ccc(Br)cc2)c([N+](=O)[O-])n1	0.9	7%	-1	/	-4
Cc1c(C(c2ccc(F)cc2)c2c(O)c3ccccc3oc2=O)c(=O)n(-c2ccccc2)n1C (stereo not given)	0.0	-3%	3	-37	4
CCNc1nc2c(c(=O)[nH]c(=O)n2C)n1Cc1ccc(F)cc1	-2.4	-9%	-2	-14	-5	Arbovirus anti repeat=-5
Fc1ccc(COc2ccc(C(=S)N3CCCC3)cc2)cc1	4.1	/	/	/	6
CCN(CC(=O)NCCc1ccc(S(N)(=O)=O)cc1)Cc1ccccc1	-0.9	/	/	/	-7
CCc1ccc(N2CC(C(=O)OCC(=O)NC3CCS(=O)(=O)C3)CC2=O)cc1 (stereo not given)	-5.6	-10%	7	-6	-7	Arbovirus anti repeat=-1
COc1ccc(NC(=O)N2CCCC(C(=O)NCc3ccccc3F)C2)cc1 (stereo not given)	0.6	/	/	/	-2
CCOC(=O)c1cccc(NC(=O)CSc2nnc(C3CCCCC3)n2C)c1	-0.8	-9%	8	3	-1
Cc1ccc(NC2CCCN(C(=O)CCN3CCOCC3)C2)cc1C (stereo not given)	0.0	/	/	/	-15
O=C(Nc1ncc(Cc2ccccc2Cl)s1)C1CCCO1 (stereo not given)	5.8	36%	-3	-22	65
O=C(NCCCN1CCCC1=O)c1cc(-c2ccc3c(c2)OCO3)nc2ccccc12	0.8	6%	-9	/	0
CC1CC(C)CN(C(=S)SCc2nc(N)nc(Nc3ccccc3)n2)C1 (stereo not given)	6.9	-2%	/	/	3
Oc1ccc2ccccc2c1/C=N/c1nccs1	3.7	-5%	16	-36	-2
CC(=O)Nc1ccc(S(=O)(=O)Nc2cccn(Cc3ccc(C)cc3)c2=O)cc1	1.5	-7%	8	/	2
O=C(CN1CCNCC1)Nc1ccc(Oc2ccccc2)cc1	-0.2	3%	-7	-19	?
COc1ccccc1N1CCN(C(=O)CSc2ccccc2)CC1	0.7	-6%	4	8	-6
COc1ccc(/C(O)=C2/C(=O)C(=O)N(c3ccccn3)C2c2ccc(OC)c(OC)c2)cc1 (stereo not given)	-1.7	4%	/	/	0
COc1cc(/C=C(\C#N)C(=O)Nc2ccccc2C(=O)O)cc(Cl)c1OC	1.9	5%	4	/	-3
O=C1CSC2(N1)C1CC3CC(C1)CC2C3 (stereo not given)	-1.7	1%	/	/	-4
NC1=C(c2ccc(F)cc2)C(=O)CS1	7.5	-15%	-3	-30	-14	Arbovirus anti repeat=5
CN(C)C(=O)/C(=C/c1ccc(-c2cccc([N+](=O)[O-])c2)o1)NC(=O)c1ccccc1	0.6	/	/	/	-1
COc1ccc(S(=O)(=O)N2CCCN(CC(=O)Nc3ccc4c(c3)OCO4)CC2)cc1	/	/	-2	-8	-17
Cc1ccc(-c2ccc(=O)n(CCC(=O)NCCN3CCCCC3C)n2)cc1 (stereo not given)	1.8	0%	10	-14	-11
C[C@H]1CCC[C@@]2(O[C@@H](CCO)C[C@@H](O)[C@@H]2O)O1	1.8	-5%	/	/	-4
CCN(CC)S(=O)(=O)c1ccc(O)c(C(=O)OCC(=O)N(C)Cc2ccccc2)c1	-1.6	-10%	3	-35	-1
CC(=O)c1ccc(-c2ccc(/C=C(/Sc3n[nH]c(C)n3)C(=O)O)o2)cc1	-2.3	7%	/	/	23
CC1CCC2(CC1)NC(=O)N(NC(=O)CCl)C2=O (stereo not given)	1.4	-4%	2	/	0
C=CCNc1nc(C(=O)OCC(=O)Nc2c(Cl)cccc2C(F)(F)F)cs1	5.0	/	/	/	-8
CCN(CC(=O)NCc1ccc(Cl)cc1)C(=O)CCc1ccccc1	0.8	/	/	/	-1
CC1=CC(C)(C)NC(=S)N1c1ccccc1C	0.8	1%	-1	/	-4
COc1ccc(S(=O)(=O)N2CCN(C3Cc4ccccc4C3)CC2)cc1	1.6	4%	1	-46	-2
CCOc1ccc2nc(NC(=O)CN3CCN(C)CC3)sc2c1	2.0	79%	-3	1	87
O=[N+]([O-])c1c(NCCCO)cc(Sc2ccc(Cl)cc2)c2nonc12	20	54%	-16	1	11
CCc1ccc(/C=C2\SC(=S)N(CCCC(=O)Nc3ccc(C(=O)O)cc3)C2=O)cc1	7.2	/	/	/	-1
COc1cccc(CN2CCN(S(=O)(=O)c3ccc(NC(C)=O)cc3)CC2)c1OC	1.3	0%	-2	/	0
COCCOC(=O)C1=C(C)N(c2ccccc2)C(=O)NC1c1cccc([N+](=O)[O-])c1 (stereo not given)	-3.9	7%	0	-7	1
Cc1ccc(S(=O)(=O)NCCC(=O)NCc2ccccc2)cc1	2.4	-1%	-5	3	-5
CC(=O)N1CC2([N+](=O)[O-])CN(C(C)=O)CC([N+](=O)[O-])(C1)C2(C)C	-0.8	-7%	22	/	4
Cc1ccc(-n2c(O)c(C=NCc3ccccn3)c3ccccc3c2=O)cc1C	3.0	13%	-19	-19	7
Cc1sc2nc(-c3ccncc3)[nH]c(=O)c2c1-c1ccccc1	1.8	-3%	-1	-9	12
COC(=O)c1sc2nc(-c3ccccc3)nc(N3CCN(C)CC3)c2c1C	-1.6	70%	-31	-11	/
O=C(NCCCN1CCOCC1)c1ccc(Br)cc1	3.2	-1%	4	-28	6
O=C(NCCO)c1ccc(-c2nnc(Nc3ccc(O)cc3)c3ccccc23)cc1	9.8	/	/	/	-1
COc1ccc(C(=O)NCc2nnc(SCC(=O)N3CCC(C)CC3)o2)cc1	0.6	-7%	-6	/	-2
CSc1sc(C(=O)Nc2ccc(F)cc2F)c2c1C=CCC2	0.2	2%	/	/	2
CN(Cc1ccccc1)C(=O)COC(=O)c1ccc(=O)n(Cc2ccccc2)n1	-0.2	/	/	/	1
COCCN(Cc1ccccc1)C(=O)C1CCN(S(=O)(=O)c2ccc(OC)c(OC)c2)CC1	0.8	/	/	/	-1
C/C1=C\[C@@H](C)C/C=C/[C@H]2[C@@H]3O[C@]3(C)[C@@H](C)[C@H]3[C@H](Cc4c[nH]c5ccccc45)NC(=O)[C@]32C(=O)/C=C/C(=O)[C@@H]1O	-1.6	77%	-19	/	-3
COc1ccc(C(=O)N2CCCc3ccccc32)cc1OC	1.9	/	/	/	5
N#C/C(=C(/O)CN1CCCCC1)c1nc(-c2ccc(Cl)cc2)cs1	-0.2	0%	11	-22	-8
NC(=O)N/N=C(/CCCCCC/C(=N\NC(N)=O)c1ccccc1)c1ccccc1	1.0	11%	/	/	83
C=CCOc1ccc(/C=C2/C(=N)N3N=C(CC(=O)N4CCCC4)SC3=NC2=O)cc1OC	1.4	/	/	/	-10
COc1ccc(CC(=S)N2CCOCC2)cc1	0.0	-13%	3	-16	4
CCCCN(C)CCCN1C(=O)C2C(C(=O)Nc3cccc(OC)c3)C3C=CC2(O3)C1C(=O)NC1CCCCC1C (stereo not given)	0.1	/	/	/	0
O=c1onc(-c2cccs2)n1Cc1ccccc1	1.0	8%	-2	-1	-2
(more compounds)
SMILES	RecA intein inh	Mtb growth	Arbovirus anti	YopH inh	Mtb betalactam	others
CCc1ccc2nc(NC(=O)Cn3cnc4ccccc4c3=O)sc2c1	0.5	1%	6	/	2
O=C(Nc1ccccc1)O/N=C1/CCCc2occc21	1.9	2%	/	/	-8
CC(=O)NC1(C(F)(F)F)C(=O)Nc2c1c(=O)[nH]c(=O)n2-c1ccccc1 (stereo not given)	0.9	-5%	/	/	-5
Cc1cc(C(F)(F)F)nc(NCc2ccc(F)cc2)n1	0.2	-1%	6	-44	4	Arbovirus anti repeat=-5
Cc1ccccc1-n1c(SCC(=O)N2CCOCC2)nc(O)cc1=O	-0.7	-7%	13	-31	-2
Cc1cc(C)nc(-n2nc(C)c(Sc3ccc(F)cc3)c2N)n1	3.7	3%	26	10	76
CCn1nc(C(=O)O)c(=O)c2cc3c(cc21)OCO3	-0.8	-1%	4	-29	-3
Cc1ccc(NC(=O)CN(C)Cc2ccc(F)cc2)c([N+](=O)[O-])c1	4.2	-7%	-6	-25	10
Nc1cc(C(=O)N/N=C/c2cccc([N+](=O)[O-])c2)n[nH]c1=O	0.0	-9%	/	/	1
N/C(=N\OC(=O)c1ccccc1Br)c1cccc([N+](=O)[O-])c1	1.0	/	/	/	42
CC(=O)NCCn1c(SCc2ccccc2C)nc2ccccc2c1=O	32*	7%	-5	-36	?
CCn1c(SCC(=O)c2[nH]c(C)c(C(C)=O)c2C)nnc1-c1cccs1	-3.2	3%	9	-35	?

Assay outcomes (PubChem)
